Source: PubChem (several laboratories)
ALR inh: inhibitors of human ALR sulfhydryl oxidase, primary screen, biochemical, H2O2 detection, HRP-luminol luminescence, single point; purified ALR, DTT oxidation; inhibition, % (concentration not given with the values); FAD-linked sulfhydryl oxidase ALR (Homo sapiens), P55789; 290,000 compounds, 3.8% hits; AID 485317, 2010;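 active means mean and each replicate at 75% or more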;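 further: stock transfer was 7.5 nL into about 7.5 µL; 0% = neutral wells and 100% = wells with inactivated enzyme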
Target sequence (P55789 whole entry, looked up): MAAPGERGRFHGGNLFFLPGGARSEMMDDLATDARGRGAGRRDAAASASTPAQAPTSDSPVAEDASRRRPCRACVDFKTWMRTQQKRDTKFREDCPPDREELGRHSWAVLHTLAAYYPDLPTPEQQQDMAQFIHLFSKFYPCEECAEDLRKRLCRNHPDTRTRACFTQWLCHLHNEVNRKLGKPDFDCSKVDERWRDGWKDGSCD
Ecoli growth: E. coli growth inhibition, primary screen, OD600. AID 1053175, 2014. OD600 absorbance (concentration not given with the values). 330,000 compounds, 0.21% hits. Escherichia coli growth, 23 h; hits give low values;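 active means OD600 absorbance below the run mean of sample wells minus 3.6 SD, in any replicate, cut at about 0.56 in these data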;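 further: stock transfer was 300 nL into about 60 µL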
B2AR ag: beta2AR agonists driving receptor internalization, primary screen, cell-based, FAP fluorogen, flow cytometry; Am2.2-beta2AR cells; reference of the scale not given here; response, % (concentration not given with the values); 340,000 compounds, 0.43% hits;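 active means response above a set limit, near 3 SD of response in nonfluorescent compounds, cut at about 42% in these data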;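 further: stock transfer was 100 nL into about 11 µL; a reference agonist was the positive control; negative values mostly stem from fluorescent compounds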
UCH37 DUB inh: inhibitors of human UCH37 deubiquitinase, primary screen, biochemical, Ub-AMC cleavage, fluorescence. Ubiquitin carboxyl-terminal hydrolase isozyme L5 (Homo sapiens), Q9Y5K5. purified proteasome/UCH37. inhibition, % (test concentration not listed). 330,000 compounds, 0.33% hits. AID 588478, 2011;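 active means mean of two replicates above 20%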;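 further: 0% = compound-free wells with enzyme and 100% = wells lacking proteasome; stock transfer was 100 nL into about 20 µL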
Target sequence (Q9Y5K5 whole entry, looked up): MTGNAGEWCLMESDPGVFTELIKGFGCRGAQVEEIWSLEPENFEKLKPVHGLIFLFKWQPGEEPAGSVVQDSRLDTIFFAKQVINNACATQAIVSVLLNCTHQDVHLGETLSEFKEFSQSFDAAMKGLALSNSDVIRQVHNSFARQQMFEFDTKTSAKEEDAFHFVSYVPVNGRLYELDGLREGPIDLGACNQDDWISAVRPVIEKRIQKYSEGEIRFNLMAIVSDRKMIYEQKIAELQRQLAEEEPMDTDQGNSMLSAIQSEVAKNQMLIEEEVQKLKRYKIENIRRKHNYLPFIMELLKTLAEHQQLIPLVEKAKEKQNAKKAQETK
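Material: human UCH37 enzyme supplied as purified proteasome complex. Measure: % inhibition of Ub-AMC cleavage fluorescence. Medium: pH 7.4 Tris-HCl (50 mM) with ovalbumin, ATP-MgCl2, DTT. Times: 30 min preincubation with enzyme, 25 min cleavage at room temperature. Detection: AMC fluorescence intensity at 355/460 nm.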
rRNA inh HTS: reduced GFP signal of wild-type E. coli, primary screen, bacterial rRNA inhibitor project, GFP/RFP fluorescence, OD600, single point | E. coli WT GFP vs humanized-ribosome RFP mutants, 24 h; hits give low values; DMSO median 0, no signal -100 | GFP signal change (wild-type ribosome), % (no concentration beside the values) | 350,000 compounds, 1.6% hits | AID 720706, 2013;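 active means significant combined selectivity score with lowered wild-type GFP, culture density cut under 30%, mutant RFP and density less affected; inactive means any of these conditions unmet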; further: one replicate is shown; some compounds called inactive have numbers as strong as hits
FGF22 binding: binders of human FGF22 protein, primary screen, FGF22 synaptogenesis inhibitor project, biophysical, thermal shift, single point; recombinant FGF22 thermal shift, SYPRO orange fluorescence; percent of sucrose octasulfate shift, DMSO zero; 340,000 compounds, 1.5% hits; Fibroblast growth factor 22 (Homo sapiens), Q9HCT0; calls only at 9.99 µM;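 active means melting point raised past a set limit in the mean and every replicate; three in four hits are not shown here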
Target sequence (Q9HCT0 whole entry, looked up): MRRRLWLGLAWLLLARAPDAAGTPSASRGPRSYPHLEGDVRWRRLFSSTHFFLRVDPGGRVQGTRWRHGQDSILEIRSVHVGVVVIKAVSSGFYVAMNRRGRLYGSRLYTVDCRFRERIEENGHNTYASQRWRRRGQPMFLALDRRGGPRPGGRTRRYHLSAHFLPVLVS
HNF4A DNA FP: change in binding of human HNF4A to DNA, primary screen, biochemical, fluorescence polarization, FITC-DNA; Hepatocyte nuclear factor 4-alpha (Homo sapiens), P41235; 1 h; activity change, % at 10 µM; 360,000 compounds, 0.3% hits; in the data active means activity change above about 30%, passing the limit was not always enough;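 further: controls were the assay level and a saturating level of protein; the project sought stronger binding though the title names inhibitors; some compounds called inactive have numbers as strong as hits; positive values seem to mean higher polarization but the record does not say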
rRNA inh HTS OD600: further read-out of rRNA inh HTS, marked with its call; OD600 change, %; measured here: OD600 growth;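 optical density of the mix in the first replicate; 0 = DMSO median and -100 = no signal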
rRNA inh HTS RFP: second read-out of rRNA inh HTS, no call of its own (marks repeat the call); RFP signal change, %; measured here: RFP humanized mutant strains;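 first replicate; 0 = DMSO median and -100 = no signal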
The depositor's hits bear a star; i = inactive; nt = not tested or not shown; & = joins results of further samples. An excerpt; count on the stated rates, not on these rows.

SMILES	ALR inh	Ecoli growth	B2AR ag	UCH37 DUB inh	rRNA inh HTS	rRNA inh HTS OD600	rRNA inh HTS RFP	FGF22 binding	HNF4A DNA FP
COc1ccccc1-n1c(SCC(=O)Nc2cc(C)on2)nc2c(c1=O)SCC2	-10	0.66	7	2.7	12	1	0.1	i	1.3
Cc1ccc(CCNC(=O)C2CCCN(S(C)(=O)=O)C2)cc1 (stereo unspecified)	-1	0.64	-2	4.3	4	-3	3.7	nt	1.8
O=C(CCC(=O)NC1CCCCC1)N/N=C/c1ccncc1	-4	nt	-6	nt	22	18	1.1	i	-1.6
O=Cc1ccc(-c2cc(Cl)ccc2Cl)[nH]1	-1	0.66	1	0.3	-1	-1	-0.2	i	-1.1
O=C(O)c1c(-c2ccccc2)nnc2ccccc12	-12	0.68	-10	5.3	12	9	1.8	i	-1.0
CCCCOc1ccc(C(=O)Oc2cc(C)[nH]c(=O)c2[N+](=O)[O-])cc1	1	0.71	2	3.6	5	8	3.2	i	-1.6
Cc1ccccc1CC(=O)N1CCCC1	-1	0.66	0	0.6	8	8	1.2	i	-3.6
COc1ccc(NS(=O)(=O)c2cc3c(cc2C)N(C)CCO3)c(OC)c1	23	0.72	4	4.2	-3	-5	-1.9	i	-1.0
CN(Cc1ccc(Cl)s1)C(=O)CNC(=O)CNC(=O)c1ccc(Cl)cc1Cl	-2	0.7	-3	3.1	-27*	-9.8*	2.9*	i	-0.5
COC(=O)c1cc(=O)nc2sc(-c3ccc(F)cc3)nn12	-4	0.7	9	-6.6	nt	nt	nt	nt	-1.0
CCOC(=O)C1(Cc2cccc(OC)c2)CCN(Cc2cccnc2)CC1	0	0.69	6	2.6	4	-5	-4.9	i	2.3
CCOC(=O)CNC(=O)CSc1nc(C)cc(C)c1C#N	-3	0.73	3	5.1	nt	nt	nt	nt	-0.4
CCOC(=O)C1(CCOc2ccccc2)CCN(Cc2cc(OC)c3c(c2)OCO3)CC1	-15	0.7	3	1.9	-42	-72	-9.8	i	-4.0
Cc1ccc(S(=O)(=O)N(CCCO)CC(O)CON=C2c3ccccc3-c3ccccc32)cc1 (stereo unspecified)	-5	0.7	11	3.8	-18	-29	17	i	2.1
COc1ccc(S(=O)(=O)NCC(=O)NC2CC2)cc1OC	-4	0.67	15	1.5	9	15	-1.7	i	-30
Brc1cnc(N2CCOCC2)nc1N1CCCCC1	-11	0.71	-8	1.5	nt	nt	nt	nt	4.0
Nc1cn(C2OC(CO)C(O)C2O)c(=O)[nH]c1=O (stereo unspecified)	-7	0.73	2	3.5	24	13	4.8	i	-0.8
Nc1nc(Cn2nnc(-c3ccccc3Cl)n2)nc(N2CCOCC2)n1	8	0.7	-3	4.8	nt	nt	nt	nt	-0.4
Cn1nnc(NC(=S)NC(=O)c2ccc(-c3ccc(Br)cc3)o2)n1	0	0.72	9	6.3	3	3	-4.0	i	2.0
CC(=O)Nc1ccc(NC(=O)CSc2nnc(-c3cccs3)n2C)cc1	nt	0.66	-5	-0.8	1	6	-2.4	i	1.0
COc1cc(C(C2=C(O)CC(C)(C)CC2=O)C2C(=O)CC(C)(C)CC2=O)cc(OC)c1OC (stereo unspecified)	2	0.67	-1	2.6	7	5	0.1	i	3.5
CC(NC(=S)Nc1ccc(Cl)cc1)C(c1ccccc1)N1CCOCC1 (stereo unspecified)	-3	0.71	2	0.7	-12	-22	-1.7	i	1.9
COc1ccccc1CNC(=O)COC(=O)C1CCN(S(=O)(=O)c2ccccc2)CC1	1	0.66	-8	0.2	-8	-5	-0.7	i	1.9
O=C(COC(=O)c1cnccn1)Nc1ccc2c(c1)OCO2	-6	0.75	-6	0.1	nt	nt	nt	nt	-2.0
O=C(c1ccc(Cn2cnnn2)cc1)N1CCCC(Nc2ccc(F)cc2)C1 (stereo unspecified)	65	nt	-1	nt	1	3	-1.6	i	8.4
O=C(Cc1cccc(NC(=O)C2CCN(C(=O)c3ccccc3)CC2)c1)Nc1cccc(C(=O)N2CCOCC2)c1	nt	0.71	-14	0.1	2	13	-0.6	i	2.7
CC(C)OC(=O)/C=C1\C[C@@H](c2ccccc2C(F)(F)F)O[C@@H](c2ccccc2C(F)(F)F)O1	nt	nt	nt	nt	9	12	1.0	i	1.4
COc1ccc(-c2cc(C(=O)NCC3CCCO3)c3ccccc3n2)cc1 (stereo unspecified)	2	0.66	-14	-226	-2	2	0.4	i	1.7
CC(C)=CCc1c(O)cc2c(c1O)C(=O)CC(c1ccccc1)O2 (stereo unspecified)	-6	0.74	7	1.8	-2	3	2.0	i	2.2
CN1CCc2c(C#N)c(N3CCCCC3)nc(NCc3ccccc3)c2C1	-8	0.66	12	-23	nt	nt	nt	nt	-4.6
C=CCN(C(=O)c1cccc(N2C(=O)C3CC=CC(C)C3C2=O)c1)c1ccccc1 (stereo unspecified)	-24	0.73	-9	3.7	-12	-11	2.7	i	2.3
CCOC(=O)C(=C1Nc2ccccc2N1)n1c(-c2ccco2)nc2ccccc21	nt	nt	nt	nt	19	14	33	i	-4.8
CC(NC(=O)COC(=O)COc1ccc(C(=O)c2ccccc2)cc1)c1ccccc1 (stereo unspecified)	-2	0.7	-8	5.5	2	4	1.5	i	0.5
CN(Cc1ccccc1)C(=O)c1[nH]cnc1C(=O)NCc1ccc(CNC(=O)OC(C)(C)C)cc1	-4	0.68	11	1.0	-12	-14	9.6	i	-5.4
O=C1OCc2cc(-n3cccc3)ccc21	1	0.69	2	1.2	12	4	3.1	i	-3.1
CCOC(=O)C1=C(c2ccccc2)ON(C)C1c1ccccc1 (stereo unspecified)	-2	0.71	-2	7.2	3	3	2.7	i	-2.9
COC(=O)C1=C(C)N(CCc2c[nH]c3ccccc23)C(=O)/C1=C\N(C)C	4	0.67	-11	7.6	23	19	5.2	i	-0.4
CCOc1ccc(CCNC(=O)CCNS(=O)(=O)c2ccc(Br)cc2)cc1OCC	-1	0.65	1	5.1	-15	-12	1.4	i	0.2
N#Cc1c(N)nc(SCC(=O)OCc2ccccc2)c(C#N)c1-c1ccco1	nt	0.69	7	-15	nt	nt	nt	nt	6.5
NC(=O)CN1CCCC1c1ccc2c(c1)OCCO2 (stereo unspecified)	10	0.65	3	6.6	6	12	0.4	i	-0.2
CSCCC(NS(=O)(=O)c1ccc2c(c1)oc(=O)n2C)C(=O)NC1CCCCC1 (stereo unspecified)	7	0.75	-20	1.6	3	16	-1.7	i	-4.7
Cc1ccc(NC(=O)C(=O)NC(C)C2COc3ccccc3O2)cc1 (stereo unspecified)	2	0.69	-4	4.3	nt	nt	nt	nt	-3.1
COc1ccc(S(=O)(=O)N2CCN(S(=O)(=O)c3ccc(C(F)(F)F)cc3)CC2)cc1C	-3	0.69	-2	2.5	nt	nt	nt	nt	4.3
Cc1cc(NCCCCCCCNc2cc(C)nc3cc([N+](=O)[O-])ccc23)c2ccc([N+](=O)[O-])cc2n1	nt	nt	16	nt	-37	-53	-3.5	i	102
CCNc1nc(SCCOc2ccc(Br)cc2)nc(N(C)C)n1	1	0.71	-5	-0.1	-10	-21	-3.5	i	1.4
Cc1cccc(C)c1N1CCN(S(=O)(=O)N2CCOCC2)CC1	-10	0.73	13	6.3	nt	nt	nt	nt	-1.8
Cc1ccc(S(=O)(=O)N2C[C@H]3C(=O)C[C@@H](c4ccc(Cl)cc4)N(S(=O)(=O)c4ccc(C)cc4)[C@H]3C[C@H]2c2cccc3ccccc23)cc1	nt	nt	nt	nt	4	18	11	i	5.6
Cc1cc(C(=O)CSc2nnc3c(Cl)cc(Cl)cn23)c(C)n1C	-11	0.69	1	5.3	nt	nt	nt	nt	-6.8
COc1ccccc1NS(=O)(=O)c1ccc(C(=O)N2CCN(c3ccccc3)CC2)cc1	nt	0.66	2	3.7	-8	-22	5.7	i	1.3
Cn1c2ccccc2c(=O)c2ccc(C#CC3(O)CCCCC3)cc21	-1	0.65	29	-58	-22	-38	-28	i	-1.4
Cc1ccc(N2C(=O)c3cccc(Oc4ccc(Cl)cc4)c3C2=O)c(C)c1	-31	0.75	-13	3.6	9	11	-0.4	i	0.6
CCC(C)c1ccccc1NC(=O)c1[nH]c(C)c(C(C)=O)c1C (stereo unspecified)	nt	0.7	31	-1.2	2	-10	0.9	i	-0.4
Cn1c(=O)c(=O)n(C)c2cc(S(=O)(=O)N3CCCC3C(=O)NCc3cccnc3)ccc21 (stereo unspecified)	nt	0.69	-3	2.2	1	-1	-3.3	i	0.2
Cc1ccc2nsnc2c1NC(=O)CCl	nt	0.72	-4	-2.7	14	10	1.4	i	9.9
COc1ccc(CN=Nc2cc(C)nc(NS(=O)(=O)c3ccccc3Cl)n2)cc1	-3	0.69	nt	-60	15	1	-6.1	i	nt
Cc1ccc(C)c(NC(=O)c2ccc[n+](Cc3ccc([N+](=O)[O-])cc3)c2)c1	-10	0.67	10	0.5	nt	nt	nt	nt	-0.5
CC(C)NC(=O)Nc1ccc2c(c1)C(=O)N([C@H](C)CO)C[C@H](C)[C@@H](CN(C)C(=O)NC1CCCCC1)O2	-3	0.72	1	4.0	1&17	0&12	-1.9&0.3	i	0.9
CC(C)(C)c1cc(NC(=O)c2ccco2)no1	12	0.67	-9	1.3	13	19	5.2	i	0.6
CC(OC(=O)c1ccccc1Oc1ccccc1)C(=O)NC1CC1 (stereo unspecified)	2	0.72	-5	3.6	-30	-43	-15	nt	4.4
COC(=O)[C@]1(CC(C)C)N[C@H](c2ccc(-c3ccc(Cl)c(Cl)c3)cc2)[C@@H]2C(=O)N(C)C(=O)[C@@H]21	0	nt	-6	2.8	12	4	0.0	i	-30
Cc1cccc(NC(=S)N/N=C/c2ccc(Cl)c([N+](=O)[O-])c2)c1	-2	nt	1	nt	nt	nt	nt	nt	-2.5
CC1=CC2=NC(=O)CC(C)(C(=O)N(CC(=O)NC3CCCC3)Cc3ccccc3)N2C=C1 (stereo unspecified)	3	0.66	1	-166	2	10	-1.9	i	2.5

An excerpt of these results, with values under each structure:
The line under a structure holds: ALR inh, Ecoli growth, B2AR ag, UCH37 DUB inh, rRNA inh HTS, rRNA inh HTS OD600, rRNA inh HTS RFP, FGF22 binding, HNF4A DNA FP
> COc1ccc(S(=O)(=O)N2CCN(S(=O)(=O)c3ccc(C(F)(F)F)cc3)CC2)cc1C
    -3, 0.69, -2, 2.5, nt, nt, nt, nt, 4.3
> Cc1ccc(CCNC(=O)C2CCCN(S(C)(=O)=O)C2)cc1 (stereo unspecified)
    -1, 0.64, -2, 4.3, 4, -3, 3.7, nt, 1.8
> Cc1ccc2nsnc2c1NC(=O)CCl
    nt, 0.72, -4, -2.7, 14, 10, 1.4, i, 9.9
> COc1ccc(CN=Nc2cc(C)nc(NS(=O)(=O)c3ccccc3Cl)n2)cc1
    -3, 0.69, nt, -60, 15, 1, -6.1, i, nt
